Compound activity (PubChem)
MT1-MMP act inh – blockers of MT1-MMP proenzyme processing, primary screen, HT1080 RFP-PRO-GFP cells, GFP/RFP fluorescence; Matrix metalloproteinase-14 (Homo sapiens), P50281; GFP/RFP ratio fluorescence, overnight; percent of plate control window, DMSO zero; GFP/RFP ratio change, % at 20 µM; hit rate 0.061% among 360,000;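 active = GFP/RFP ratio change of at least 30% with cell ATP level not reduced by more than half and red fluorescence within 50% of control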; note: strong numbers were not always called active
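Material – HT1080 RFP-PRO-GFP cells · Control set – DMSO wells and RFP-L50D-GFP cells · Incubation – overnight cell settling, then overnight compound exposure, 37 °C, 5% CO2 · Compound dosing – single-point 20 µM compound, 1% DMSO · Read-out – GFP/RFP fluorescence ratio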
PABP FP inh – PABP poly(A) RNA binding inhibitors, primary screen, biochemical, fluorescence polarization, uHTS. hit rate 1% among 290,000. Polyadenylate-binding protein 1 (Homo sapiens), P11940. inhibition, % at 35 µM. AID 2014, 2009;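 active = 50% or more with normal probe brightness, or confirmed in later tests; inconclusive = above 50% with abnormal brightness, or retests that disagree; inactive = below 50% or failed in later tests; about a fifth of its hits are not listed in these tables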;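 note: calls also rest on retests at 20 µM and on dose response follow-up; controls were probe without protein and protein plus probe with vehicle; some compounds called inactive have numbers as strong as hits; many hits fall short of the cut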
CSC inhib – cancer stem cell viability inhibitors, primary screen, luminescence; hit rate 1.1% among 300,000; inhibition, % at 7.5 µM; cancer stem cell-like cells viability;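 active = mean at 75% or more and at least half the replicates too; inconclusive = mean and replicates disagree; tested in HMLE shEcad cells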;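 note: 0% = median of negative and 100% = median of positive control wells; the first replicate is given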
Rce1 inh – yeast Rce1p protease inhibitors, primary screen, biochemical, fluorescence, cell-free homogeneous. CAAX prenyl protease 2 (Saccharomyces cerevisiae (strain ATCC 204508 / S288c)), Q03530. yeast membranes, quenched prenylated peptide cleavage fluorescence. calls only. hit rate 0.27% among 290,000;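 active = fall in fluorescence gain of 50% or more versus controls, with final raw signal at or below 3038400; inconclusive = same 50% fall but final raw signal above 3038400; inactive = fall in fluorescence gain under 50%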;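 note: plate controls were neutral control wells for no effect and wells lacking membranes for full effect; tested at 10 µM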
Target sequence (Q03530 whole entry, looked up): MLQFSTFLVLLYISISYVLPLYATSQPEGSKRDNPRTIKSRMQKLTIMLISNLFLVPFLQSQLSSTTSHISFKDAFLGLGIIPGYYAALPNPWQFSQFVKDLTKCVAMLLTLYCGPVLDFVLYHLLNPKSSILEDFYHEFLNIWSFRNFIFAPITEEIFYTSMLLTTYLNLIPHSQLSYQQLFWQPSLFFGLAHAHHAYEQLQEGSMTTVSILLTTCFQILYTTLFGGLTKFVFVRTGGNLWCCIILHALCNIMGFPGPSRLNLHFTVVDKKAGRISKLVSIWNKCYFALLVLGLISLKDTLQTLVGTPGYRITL
Env fusion inh – inhibitors of HIV-1 Env-driven cell-cell fusion, primary screen, HeLa-JRFL effector, CEM21 target cells, luciferase; inhibition, % at 12.3 µM; hit rate 1.1% among 360,000; AID 651610, 2012;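 active = mean replicate inhibition score of at least 50 and every replicate individually at or above 50; inconclusive = only one of the two criteria met; inactive = mean below 50 and not all replicates reaching 50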;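 note: 0% = plate neutral controls and 100% = maraviroc near 300 nM; one replicate is shown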
eIF4H inh – human eIF4H binding inhibitors, primary screen, translation initiation inhibitor project, biochemical, uHTS, fluorescence polarization | Eukaryotic translation initiation factor 4H (Homo sapiens), Q15056 | eIF4H fluorescence polarization binding assay | inhibition, % at 35 µM | hit rate 0.94% among 290,000 | AID 2012, 2009;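 active = 50% or more with normal probe brightness, or confirmed in later tests; inconclusive = above 50% with abnormal brightness, or retests that disagree; inactive = below 50% or failed in later tests; about a fifth of its hits are not listed in these tables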;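 note: calls also rest on retests at 20 µM and on dose response follow-up; 0% = protein and probe with vehicle and 100% = probe without protein; strong numbers were not always called active; many hits fall short of the cut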
Yeast UUG start – modulators of yeast start codon fidelity, primary screen, whole organism, S. cerevisiae, single point, plate reader | S. cerevisiae UUG-firefly luciferase reporter, luminescence/redox ratio | activity score, % at 18.7 µM | hit rate 0.13% among 350,000 | AID 602363, 2012;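 active = replicate mean at a twofold rise or more, about +100% in these data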;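 note: firefly luciferase made from a UUG start codon reports start codon fidelity; reporter light over untreated wells divided by growth signal over untreated wells; some hits fall short of that in this replicate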
MT1-MMP act inh RFP – second read-out of MT1-MMP act inh, no call of its own (marks repeat the call); RFP signal change, %; measured here: RFP expression control read;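 0 = vehicle wells; hits needed this value within 50% of zero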
* = called active by the depositor; i = inactive; u = inconclusive; x = not tested or not shown; + = active, no number.

SMILES	MT1-MMP act inh	MT1-MMP act inh RFP	PABP FP inh	CSC inhib	Rce1 inh	Env fusion inh	eIF4H inh	Yeast UUG start
CN(C)CCCN(C(=O)c1cc2cc([N+](=O)[O-])ccc2s1)c1nc2cc3c(cc2s1)OCCO3	-4.1	-2.1	x	63.4	i	86.8*	x	-10.9
COc1ccc(OCCCC(=O)Nc2cccc(SC)c2)cc1	3.0	3.9	19.4	0.7	i	-16.0	2.0	x
CCOC(=O)C1(Cc2cccc(Cl)c2)CCCN(C(=O)C2CC2)C1 (stereo not given)	x	x	-3.3	-2.8	x	10.9	-6.1	16.8
COc1ccccc1/C=C/CN1CCCC(CCC(=O)NCc2ccc(F)c(F)c2)C1 (stereo not given)	3.4	1.8	-6.4	-14.0	i	63.4*	-0.5	x
C=CCNC(=O)COc1ccc(S(=O)(=O)N2CCCC2)cc1	-1.7	3.1	-5.8	-11.5	i	-15.9	-4.9	x
CCCC(=O)Nc1ccccc1N1CCN(C(=O)C(C)C)CC1	-2.4	4.8	1.0	-2.1	i	-7.1	-8.5	-16.2
COCc1cc(S(=O)c2ccc(Cl)cc2)nc(C)n1 (stereo not given)	-2.5	-7.0	-1.5	x	i	15.1	-2.3	x
CCN(CC)c1ccc(NC(=O)COc2ccccc2C#N)cc1S(=O)(=O)Nc1ccccc1OC	-1.5	1.1	11.0	7.8	i	-9.1	2.1	-21.0
CC(=O)Nc1ccc(NC(=O)CNS(=O)(=O)c2ccc(C)cc2)cc1	0.9	-1.7	-4.2	-5.3	i	x	-12.2	x
O=C(NC(=S)Nc1ncccn1)c1ccccc1Cl	0.0	4.2	-7.5	-4.4	i	x	2.1	x
COc1ccc([C@H]2[C@H](C(=O)C(C)(C)C)N3N=Cc4ccccc4C3[C@]23N=C(c2ccccc2)OC3=O)cc1OC (stereo not given in full)	-1.0	-8.6	-6.3	x	x	x	-10.0	-16.4
CCc1cc2c(SCC(=O)N(C)C3CCS(=O)(=O)C3)ncnc2s1 (stereo not given)	1.2	-0.8	-2.0	-5.2	i	-16.9	2.1	5.2
O=C(CC1C(=O)NCCN1Cc1ccc(F)cc1)NC1CCCCCCC1 (stereo not given)	-3.6	-2.1	4.6	10.1	i	12.3	27.2	6.6
O=c1c2ccccc2nc2n1CCc1ccc(Br)cc1-2	2.1	3.9	x	x	x	-3.2	x	1.3
CC(Cc1cccs1)NC(=O)c1cccc(Cl)c1 (stereo not given)	4.1	2.9	-2.5	2.5	i	-24.1	-2.4	-15.3
COc1ccc(N2CCN(C(=O)c3cc(-c4cccs4)nc4ccccc34)CC2)cc1	-2.7	-4.0	4.6	2.0	+	7.1	-7.4	x
O=C(Oc1ccc(OC(=O)N2CCCCC2)cc1)c1ccccc1	0.5	2.9	3.0	9.9	i	-10.8	5.6	-8.4
O=C(c1nc2ccccc2s1)N1CCN(c2ccccn2)CC1	4.7	0.7	4.3	x	x	-11.7	4.5	-20.9
O=C(COC(=O)C1(c2cccc(F)c2)CCCC1)NCc1ccc2c(c1)OCO2	-3.0	-3.6	-0.5	7.3	i	25.0	0.9	5.0
CC(C)CC(=O)NNC(=S)Nc1ccc(S(N)(=O)=O)cc1	-0.2	-2.3	2.1	1.7	i	9.6	-6.6	-3.0
COCCNC(=O)C(c1ccc(C)o1)N(Cc1ccc(F)cc1)C(=O)Cn1nnc2ccccc21 (stereo not given)	-5.8	-1.7	8.9	-3.2	i	x	-0.1	0.0
C[n+]1ccc(C(=O)N/N=C/c2ccco2)cc1	3.0	6.0	-4.5	-8.8	i	-9.3	-7.6	-19.6
Cc1ccc(NCc2nnc(SCC(N)=O)o2)c(C)c1	-1.7	3.5	6.6	-10.5	i	1.5	-4.4	x
CC(=O)NN1C(=O)/C(=C2/Sc3ccc(Cl)cc3N2C)SC1=S	-2.9	3.5	-3.0	-11.9	i	-46.0	10.5	-29.6
CSCC[C@H](NS(=O)(=O)c1ccc(C)cc1)C(=O)N1CCC(C(=O)N[C@@H](C)C(=O)O)CC1	0.1	3.5	-4.1	-12.0	i	x	-7.9	-7.5
CC(=O)c1ccc(N(C(=O)c2csnn2)C(C(=O)NC2CCCC2)c2ccccc2)cc1 (stereo not given)	-2.2	2.9	13.0	-18.3	i	13.8	-10.9	-7.7
Cc1ccc(-c2cc(-c3nnc(SCC(=O)N(C)CCC#N)n3N)c3ccccc3n2)cc1	5.1	-0.1	3.4	11.6	i	-28.8	-3.9	-13.1
CCN(CC)c1ccc(/C=C(/C#N)c2nc3ccccc3[nH]2)c(OC(C)C)c1	-428.7	-14.1	u	71.3	i	x	u	-23.0
COc1cccc(C2/C(=C(/O)c3ccc4c(c3)CC(C)O4)C(=O)C(=O)N2CC2CCCO2)c1 (stereo not given)	0.9	-1.0	2.6	-5.6	i	x	20.6	-9.0
COc1ccc(Cl)cc1N(CC(=O)N1CCCCC1)S(C)(=O)=O	0.0	3.3	7.6	8.1	x	12.6	-6.9	x
COC(=O)c1oc2c(c1C)C1(CCC2)SCCS1	2.3	-1.1	12.6	-4.1	i	x	1.7	-3.0
CSc1ccc(Cn2c(C)c(C(=O)NCc3ccc(Cl)c(Cl)c3)sc2=O)cc1	5.4	-22.5	x	x	x	32.6	x	-7.8
N#CCCn1cc(CNCc2ccccc2)c(-c2cccc([N+](=O)[O-])c2)n1	-3.4	2.5	3.6	-2.8	i	0.3	-10.3	x
Cc1ccc(C(=O)Nc2c(C)cc(C)c3cccnc23)cc1	1.9	-2.9	0.2	50.5	i	-51.2	-10.0	-5.3
CCNC(=O)C1(C)CCCN1Cc1cccc(C(F)(F)F)c1 (stereo not given)	0.6	1.3	x	x	x	22.8	x	-22.6
CN1CCCN(C(=O)c2ccc(Cl)cc2)CC1	-1.8	-0.3	1.6	-10.7	i	-26.6	-3.5	-12.6
COc1ccccc1NC(=O)c1ccc(CS(=O)(=O)c2ccc(C)cc2)cc1	1.0	-1.6	-10.1	4.2	i	-7.4	-16.3	x
N#CCCn1cc(/C=N/O)c(-c2ccc(Cl)cc2)n1	-0.1	0.6	5.6	-7.8	i	29.3	-2.3	-26.0
CC1(C(=O)NCc2cccc(C(F)(F)F)c2)CCN1CCc1ccccc1 (stereo not given)	1.2	-5.6	x	x	x	37.4	x	-3.6
Cc1c(C(=O)Nc2ccc(F)cc2)oc2ccc(S(=O)(=O)N3CCCC3)cc12	-0.6	2.1	3.0	5.3	i	10.1	-2.7	-16.3
COc1ccc([C@H]2CC(=O)C=C(c3cccc(CO)c3)C2)cc1OC	4.4	-0.4	x	-0.5	x	-6.8	x	-0.2
Cc1cccnc1NC(=O)c1cccc(NC(=O)CC2SC(N3CCCCC3)=NC2=O)c1 (stereo not given)	1.4	-2.1	x	x	x	3.0	x	-11.8
Cc1ccc2cc(C(c3nnnn3Cc3ccccc3)N3CCc4ccccc43)c(=O)[nH]c2c1C (stereo not given)	-1.5	4.3	27.2	-12.8	i	-62.4	9.2	-12.1
CC(C)(C)NC(=O)N1CCCN(c2ccc(C(F)(F)F)cn2)CC1	4.1	-4.8	-6.8	-14.7	i	6.6	3.7	x
CC(c1ccon1)N(C)C(=O)c1ccc2nc(Cc3cccc(Cl)c3)oc2c1 (stereo not given)	1.6	-3.6	5.7	1.7	i	-6.4	5.0	20.6
CCn1c(=N)n(CC(=O)C(C)(C)C)c2ccccc21	0.1	-0.4	17.0	-6.1	i	x	-2.5	-3.4
CC1(C(=O)Nc2ccccc2Br)CCN1C(=O)CC1CC1 (stereo not given)	-3.4	3.4	x	x	x	-6.0	x	-5.7
O=C(CSc1nc2ccccc2c(=O)n1CCCN1CCOCC1)Nc1ccccc1OC(F)F	-3.4	0.7	x	x	x	29.3	x	5.8
CN1CCCC(OC(=O)c2ccc(Cl)cc2)C1 (stereo not given)	-4.7	-6.9	0.9	-6.7	i	-1.7	3.4	-2.2
O=C(Cn1c(=O)n(Cc2ccc3c(c2)OCO3)c(=O)c2ccccc21)N1CCCc2ccccc21	-5.4	-5.1	0.6	0.0	i	x	-18.3	-8.8
O=C(c1cc([N+](=O)[O-])ccc1Cl)N1CCN(c2ccccc2)CC1	7.0	7.1	14.5	-12.9	i	-10.8	-2.2	x
CCCC(=O)Nc1ccc(C(=O)N/N=C2\CC(=O)CC(C)(C)C2)cc1	-6.9	-1.8	-0.3	-4.5	i	-20.1	4.9	-6.3
COc1cccc(/C=C2\Oc3cc(OC(=O)N4CCOCC4)ccc3C2=O)c1	5.8	-8.0	3.9	-10.4	i	7.8	10.5	x
O=C1COc2ccc(-c3csc(NCCc4ccccc4)n3)cc2N1	0.2	-7.1	6.1	14.9	i	2.4	0.2	x
Cn1cnc2c1c(=O)n(CC(O)CO)c(=O)n2C (stereo not given)	-8.2	-6.0	-7.6	-7.6	i	-55.7	2.1	-18.2
COc1cc(/C=N/NC(=O)CCc2c(C)n[nH]c2C)ccc1O	0.2	6.1	-6.3	-7.2	i	-13.7	-4.4	-18.9
CN1/C(=C\C(=O)c2cccs2)Sc2ccccc21	5.8	0.4	-1.1	-7.2	i	x	5.0	-41.3
CC(=O)Nc1ccc(/C=N/N2C(=O)NC(C)(c3ccc(OC(F)F)cc3)C2=O)cc1 (stereo not given)	3.2	-5.0	-8.3	-4.1	i	-45.2	12.6	x
CC(/C=C/c1ccccc1)NC(N)=O (stereo not given)	1.7	-0.2	2.3	0.7	i	x	-4.3	-3.4
CCC(CC)C(=O)c1c[nH]c(C(=O)NCc2ccc(F)cc2)c1	0.2	-5.7	-2.5	-6.4	i	1.0	-6.7	-18.6

Sorted by number of heavy atoms (smallest number first): some entries from above.
SMILES	MT1-MMP act inh	MT1-MMP act inh RFP	PABP FP inh	CSC inhib	Rce1 inh	Env fusion inh	eIF4H inh	Yeast UUG start
CN1/C(=C\C(=O)c2cccs2)Sc2ccccc21	5.8	0.4	-1.1	-7.2	i	x	5.0	-41.3
O=C(c1cc([N+](=O)[O-])ccc1Cl)N1CCN(c2ccccc2)CC1	7.0	7.1	14.5	-12.9	i	-10.8	-2.2	x
COc1cccc(/C=C2\Oc3cc(OC(=O)N4CCOCC4)ccc3C2=O)c1	5.8	-8.0	3.9	-10.4	i	7.8	10.5	x

Following part:
SMILES	MT1-MMP act inh	MT1-MMP act inh RFP	PABP FP inh	CSC inhib	Rce1 inh	Env fusion inh	eIF4H inh	Yeast UUG start
CCC(=O)NCCn1ccc2ccccc21	4.3	4.4	-2.9	7.3	i	-32.0	-4.6	-4.8
COc1ccc(Nc2nc3c(C)cccn3c(=O)c2C=O)cc1	-3.8	-1.3	9.2	x	i	-2.9	12.4	-0.1
C(=N\Nc1ccccn1)/c1ccc(N2CCOCC2)cc1	1.9	2.6	-22.0	3.1	i	-21.0	3.4	x
Cc1ccccc1-c1nnc(SCC(=O)Nc2cccnc2Cl)o1	4.2	3.9	x	52.3	x	1.9	x	-4.7
